Bfl-1 A1 inh – inhibitors of the anti-apoptotic protein A1, read as caspase activation; AID 2462; caspase activation, % (test concentration not listed); actives 0.066% (n = 330,000); MEF A1-2A-BIM cells, Caspase-Glo 3/7 luminescence, 3 h; percent of clofoctol response, vehicle zero;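 active means over half of replicate activation scores above 10%, or exactly half above 10 with the replicate mean above 10; inconclusive means replicate mean below 10 yet half the replicates above 10; inactive means over half of replicates below 10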;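 further: wells of about 30 µL received 50 nL stock; many hits fall short of the cut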
MLL AF4-AF9 inh – blocks AF4 peptide binding to human AF9. P42568. AlphaScreen, biotin-AF4 peptide binding to FLAG-AF9. inhibition, % at 10 µM. actives 0.47% (n = 350,000);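 active means every replicate reaching a set inhibition limit, whatever the replicate mean, cut at about 25% in these data; inconclusive means mean inhibition reaches that limit but some replicates miss it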;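 further: 0% = plate neutral control median and 100% = total signal loss; the record names both 10 and 1 µM as test concentration; the first replicate is given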
Target sequence (P42568 whole entry, looked up): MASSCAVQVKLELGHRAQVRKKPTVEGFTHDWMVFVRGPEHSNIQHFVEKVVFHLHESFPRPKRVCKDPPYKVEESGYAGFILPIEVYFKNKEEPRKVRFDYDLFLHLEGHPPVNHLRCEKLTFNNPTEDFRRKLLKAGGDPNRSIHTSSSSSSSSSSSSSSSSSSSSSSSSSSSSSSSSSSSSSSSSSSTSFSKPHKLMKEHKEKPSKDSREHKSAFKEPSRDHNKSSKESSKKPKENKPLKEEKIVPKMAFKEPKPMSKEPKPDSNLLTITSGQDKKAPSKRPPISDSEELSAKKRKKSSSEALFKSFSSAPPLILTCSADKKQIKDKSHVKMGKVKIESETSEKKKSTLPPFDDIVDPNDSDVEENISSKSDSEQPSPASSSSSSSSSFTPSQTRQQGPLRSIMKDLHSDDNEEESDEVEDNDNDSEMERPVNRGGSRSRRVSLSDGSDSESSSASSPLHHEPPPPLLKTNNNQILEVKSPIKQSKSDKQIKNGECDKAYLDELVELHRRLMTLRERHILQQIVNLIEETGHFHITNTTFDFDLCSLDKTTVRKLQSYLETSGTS
Calb FLC – affects C. albicans growth with fluconazole | C. albicans CaCi-2 (fluconazole-resistant clinical isolate) + fluconazole, Alamar Blue growth, 48 h | growth inhibition, % (concentration not given with the values) | actives 0.57% (n = 300,000);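 active means most replicates above 75%; inconclusive means exactly half above 75%; inactive means most below 75%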;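 further: all wells also contain fluconazole at 8 µg/ml as a sub-toxic cotreatment; 0% = median of DMSO wells and 100% = median of geldanamycin control wells; wells of about 8 µL received 7.5 nL stock; the first replicate is given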
Beta apoptosis – blocks beta cell apoptosis. INS-1E cytokine-induced death, ATP luminescence, 48 h; percent of positive-control rescue, neutral wells zero. protection from apoptosis, % (test concentration not listed). actives 0.8% (n = 300,000). AID 435005;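 active means all replicates at 75% or more, or half of them and the mean; inconclusive means half reach 75% but not the mean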;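 further: 0% = cytokine-treated negative control wells and 100% = positive control rescue; higher means more ATP so stronger rescue from cytokine killing; wells of about 40 µL received 100 nL stock; the first replicate is given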
LANA-H2A inh – blocks KSHV LANA binding to histone H2A/H2B; Q9QR71; cell-free LANA-H2A/H2B peptide, fluorescence polarization; inhibition, % (concentration not given with the values); actives 0.6% (n = 320,000); AID 2629; in the data active means inhibition mostly above about 10%, no sharp cut-off; inactive means mostly below about 6.7%;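 further: stock transfer was 7.5 nL into about 10 µL; 0% = median of vehicle wells and 100% = median of positive control wells; one replicate is shown; the record names a cut of 25% in any replicate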
RanGTP-Imp inh – disruptors of Ran-importin-beta complex formation – biochemical, FRET, CFP-Ran, YFP-importin-beta, homogeneous, primary screen; cell-free CFP-Ran/YFP-importin-beta FRET ratio; AID 2216; inhibition, % (concentration not given with the values); actives 1.1% (n = 300,000);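 active means most replicates above 15%; inconclusive means exactly half above 15%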;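 further: 0% = DMSO wells and 100% = Ran loaded with GDP instead of GTP; wells of about 40 µL received 100 nL stock; the first replicate is given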
Vif A3G – inhibitors of Vif binding to APOBEC3G peptide, primary screen, biochemical, TR-FRET, GST-Vif 1-94, biotin-A3G peptide, dose response retest (AID 1117319); actives 0.57% (n = 260,000); TR-FRET GST-Vif / biotin-A3G peptide binding; higher % means a stronger effect; test concentration not given here; strong numbers were not always called active; inhibition, %, or IC50 in µM where a hit was titrated;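 active means above the screen mean plus three standard deviations and confirmed in dose response; inconclusive means results disagree or hit not tested in dose response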;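 further: Vif residues 1-94 fused to GST binding biotinylated APOBEC3G peptide 110-148; 0% = full assay without inhibitor and 100% = GST in place of GST-Vif; retest series ran down from 100 µM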
T cruzi inh – blocks replication of Trypanosoma cruzi; actives 1.4% (n = 300,000); T. cruzi beta-gal in NIH3T3, luminescence, 90 h; inhibition, % (test concentration not listed);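 active means mean inhibition across valid replicates above about 55%, limit read from the data; inconclusive means mean below that limit but half or more replicates reach it; inactive means mean below it, under half of replicates reach it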;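 further: signal also drops with host cell toxicity which is not excluded here; 0% = plate median of DMSO wells and 100% = zero luminescence signal; higher percent means less beta-gal luminescence so fewer parasites; stock transfer was 50 nL into about 50 µL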
The depositor's hits bear a star; ? = inconclusive; nt = no result given; & = joins results of further samples. The order is random; 4.3% or so of the library scored in one or more.

SMILES	Bfl-1 A1 inh	MLL AF4-AF9 inh	Calb FLC	Beta apoptosis	LANA-H2A inh	RanGTP-Imp inh	Vif A3G	T cruzi inh
CCn1nc(C)c(CNC(=O)C2CCC(=O)N(Cc3ccc(Cl)cc3)C2)c1C (stereo not drawn)	0.3	-0.4	-3	-1	1.9	1.6	nt	-6
CCc1ccc(NC(=O)COC(=O)/C(=C/c2ccccc2OC)c2ccccc2)cc1	0.5	-39	2	-4	-4.1	4.6	nt	-18
CSc1nc2sc3c(c2c(=O)n1C)CCC(C)C3 (stereo not drawn)	-2.9	nt	2	3	-1.3	5.8	-2%	-2
COc1ccc(NC(=O)c2cc(-c3ccco3)on2)cc1	nt	3.8	-10	nt	nt	3.3	nt	-11
Cc1ccc([N+](=O)[O-])cc1N(CC(=O)NC1CCCC1)S(C)(=O)=O	0.9	-3.2	-19	-4	-1.2	nt	4%	7
Cc1ccc(CNC(=O)c2ccccc2NC(=O)CN2CC(C)OC(C)C2)cc1 (stereo not drawn)	0.3	0.6	-7	1	4.5	1.8	-4%	-13
CC1(C)OC(C(=O)NC2CCCCC2)C(C(=O)NC2CCCCC2)O1 (stereo not drawn)	0.0	5.6	3	nt	-4.1	2.9	-7%&0%	1
O=C(CN1CCCCC1)NCC(=O)Nc1ccc(F)c(F)c1F	-0.1	1.0	nt	-6	-3.5	nt	nt	nt
Cc1ccc(S(=O)(=O)N2CCN(C(=O)CCC(=O)NCc3cccc(C(F)(F)F)c3)CC2)cc1	0.4	-4.7	-5	5	4.0	-1.1	-1%	-6
COc1ccccc1NC(=O)C(C)OC(=O)Cn1cnc2c1c(=O)n(C)c(=O)n2C (stereo not drawn)	1.1	-1.3	-2	5	2.9	7.0	-5%	-4
C=CCn1c(C(C)NC(=O)c2ccccc2)n[nH]c1=S (stereo not drawn)	-0.3	nt	1	-2	0.8	1.8	10%	9
COCc1c(C(=O)NC2CCCCCC2)oc2ccccc12	-0.1	-4.7	-38	10	3.5	6.5	9%	11
CC(=O)Nc1nc2cc3c(cc2s1)OCCO3	-5.6	0.0	-4	5	7.6	?	nt	-9
C#CCOCCOCCOCCNc1nc(N2CCOCC2)nc(N2CCN(C(=O)CCCCCCCCCCNC(=O)[C@H]([C@@H](C)CC)n3cc(CCCCN=C(N)N)nn3)CC2)n1	2.6	22	nt	-6	-6.4	nt	nt	nt
CCCn1c(N)c(C(=O)COC(=O)/C=C/c2ccc(OC(F)F)c(OC)c2)c(=O)[nH]c1=O	-0.3	-5.5	nt	3	-4.1	nt	-5%	nt
COc1ccc(Nc2ccc(OC)cc2)cc1	-0.7	81*	-5	68	0.7	5.1	6.7µM*	20
O=C(NC1CCCC1)C(c1ccc(Cl)cc1)N(C(=O)c1csnn1)C1CC1 (stereo not drawn)	0.7	-12	23	-4	-1.5	0.5	nt	-14
O=C(COC(=O)c1cc2ccccc2cc1O)NCc1ccccc1	0.2	-2.1	nt	3	-3.1	nt	-9%	nt
COc1ccccc1CNC(=O)c1cccc2c1C(=O)N(Cc1cccnc1)C2	1.3	3.1	2	3	-0.5	-0.2	6%	17
COc1ccc(C(=O)/C=C/Nc2ccc(NC(C)=O)cc2)cc1OC	0.6	nt	5	29	-3.8	9.4	33%	1
COC(=O)c1[nH]c(C)c(/C(O)=C2\C(=O)C(=O)N(CCN3CCOCC3)C2c2cccs2)c1C (stereo not drawn)	-0.9	nt	-2	-4	-4.8	1.0	9%	1
CCOC(=O)n1cc(C(=O)c2ccccc2O)cn1	-0.3	-1.1	3	nt	-0.5	-1.7	1%	-16
CNC(=S)NNC(=O)c1cccn(Cc2cccc(Cl)c2)c1=O	-0.5	nt	-2	-6	-0.1	2.3	0%	-6
Cc1ccccc1C(=O)N1CCN(c2ccc(NC(=O)c3cccnc3)cc2)CC1	1.0	1.3	-20	75*	-12	-2.6	6%	-6
Cc1ccc(C(=O)O/N=C(\N)Cc2cccc3ccccc23)cc1	-0.5	-11	-8	1	0.2	?	nt	20
CCO[C@H]1OC(C(N)=O)=C[C@@H](c2ccc(Br)cc2)[C@@H]1CCCO	0.1	2.6	11	-1	-1.6	-0.2	nt	-17
O=c1[nH]c(-c2cccnc2)nc2ccccc12	-0.9	nt	38	-6	3.9	-2.2	2%	-10
Cc1ccc(-c2nn(CCC(=O)O)cc2CCC(=O)O)cc1	-0.5	-81	0	-3	-1.0	-4.8	-2%	-13
CCOC(=O)C(C#N)(Cc1cc(OC)cc(OC)c1)Cc1cc(OC)cc(OC)c1	0.5	nt	-4	5	1.8	?	nt	6
C/C(=N/OC(=O)CC(C)C)c1cc(-c2ccc(Cl)cc2)no1	-4.7	0.5	23	8	2.8	3.5	-1%	7
CC1CCN(C(=O)C(=O)c2cn(CC(=O)N3CCCCCC3)c3ccccc23)CC1	-1.0	0.1	-11	5	1.3	-3.9	7%	55*
CN1C(=S)SC(N(O)C(=O)Nc2ccc(Cl)c(Cl)c2)C1(C)C (stereo not drawn)	0.3	nt	1	3	-4.7	-1.8	nt	?
C=CCNc1nc(SC)nc2ccsc12	0.2	nt	-1	-10	-1.5	2.2	1%	7
C=CCN1C(=O)/C(=C2/Sc3ccccc3N2C)SC1=Nc1ccccc1C	0.1	nt	2	6	4.9	1.3	32%	51
COC(=O)CN(C#N)c1nc(SC)nc(N(C)C)n1	-0.7	nt	-4	-1	-2.8	5.3	-6%	3
COC(=O)[C@@]12CCCN1[C@H](c1ccc(-c3ccccc3)c(OC)c1)[C@H]1C(=O)N(C)C(=O)[C@H]12	0.1	4.5	nt	-2	0.6	nt	nt	nt
COc1cccc(NC2=C(C#N)C(=O)NC(c3cccc(OC)c3O)S2)c1 (stereo not drawn)	0.8	-0.2	0	-9	3.1	3.3	10%	-4
C=Cn1c(C(=O)O)ccc1-c1ccc(OC)cc1	-0.4	0.1	32	-3	0.1	-1.0	-4%	-9
COc1ccc2nc3sc(C(=O)NCCN4CCc5ccccc5C4)cc3cc2c1	0.3	9.3	0	4	-0.2	1.3	nt	22
NCC(=O)Nc1ccc(Cl)cc1C(=O)c1ccc[nH]1	nt	3.6	1	nt	nt	-0.8	nt	3
O=C(CSc1nnc(NC(=O)c2cccc(F)c2)s1)NCC1CCCO1 (stereo not drawn)	-0.2	0.6	1	0	1.8	0.7	-1%	3
CSc1cccc(NC(=O)N2CCCC(CNS(=O)(=O)Cc3ccccc3)C2)c1 (stereo not drawn)	0.1	-0.5	-1	0	-3.5	-0.9	-2%	-2
CN(C)C(=O)CN1C(=O)C2CC=C(Cl)CC2C1=O (stereo not drawn)	0.5	0.5	8	-9	-3.5	-0.4	1%	-16
C=CCNC(=O)c1ccc(-c2nc(-c3ccc(Cl)c(Cl)c3)cs2)cc1	-0.9	nt	-2	-15	-0.2	-0.2	-16%	14
CCCSc1cc(=O)n(-c2ccccc2)nc1C(=O)OCC	-0.7	nt	30	2	-1.8	?	1%	-6
O=C(COC(=O)CCc1nc2ccccc2s1)Nc1cccc(S(=O)(=O)N2CCOCC2)c1	0.9	nt	-13	-2	0.3	-2.4	-3%	0
Cc1cccc(C)c1OCCCN1CCOCC1	0.0	nt	-5	-7	-1.0	3.8	-5%	2
CC(C)COc1ccc(C(=O)NC(Cc2c[nH]c3ccccc23)C(=O)NN)cc1 (stereo not drawn)	-1.8	-1.2	-3	-6	-0.5	12	6%	6
CN(Cc1cn[nH]c1-c1cc2ccccc2o1)CC1CCOCC1	0.6	-0.5	14	1	-2.5	4.0	5%	7
Cc1ccc(S(=O)(=O)N2CCN(Cc3ccccn3)CC2)cc1	-0.8	-1.2	-2	-13	3.7	-5.1	0%	-23
COc1ccc(C(=O)N2CCOC23CCN(c2ncccn2)CC3)cc1	-1.9	0.3	-7	-5	-2.3	0.7	0%	-6
Cn1ccsc1=NC(=O)c1ccccc1F	0.3	-1.2	2	0	-1.7	?	-10%	-5
Cc1nn(Cc2ccccc2)c2sc(C(=O)N3CCN(Cc4ccc5c(c4)OCO5)CC3)cc12	-0.1	nt	-7	3	-1.9	2.1	19%&2%	50
CC(=O)O[C@H]1[C@@H](O)[C@H](O)[C@H](Oc2c(O)c(C)c3c4c2[C@@H](C)CC[C@@H]4[C@@H](C)C[C@H]3C=C(C)C)O[C@H]1C	2.1	18	nt	8	3.6	nt	nt	nt
COC(=O)c1sccc1NC(=O)c1sccc1C	-2.3	nt	22	2	-0.6	1.4	3%	2
Cn1c(N)c(C(=O)COC(=O)/C=C/c2cccc(C(F)(F)F)c2)c(=O)n(C)c1=O	-0.4	1.4	nt	-5	1.2	nt	-4%	nt
O=C(CN1CCN(C2CCCCC2)CC1)NCCC1=CCCCC1	-1.3	1.2	-17	-1	-0.9	6.0	-1%	-6
CCOC(=O)c1ccc(NC(=O)c2cccc3c2C(=O)N(CC2CCCO2)C3)cc1 (stereo not drawn)	nt	-0.7	3	6	-3.0	2.9	nt	7
O=C(CCc1nnc2ccc(NCc3ccco3)nn12)Nc1cccc(F)c1	0.4	-7.8	30	-6	0.8	1.8	nt	9
CCCn1c(N)c(N(CCOC)C(=O)c2cc(Cl)nc3ccccc23)c(=O)[nH]c1=O	0.8	-0.6	1	nt	3.2	0.5	5%	-14

Further results follow.
SMILES	Bfl-1 A1 inh	MLL AF4-AF9 inh	Calb FLC	Beta apoptosis	LANA-H2A inh	RanGTP-Imp inh	Vif A3G	T cruzi inh
COc1ccc(NC(=O)c2ccccc2)c([N+](=O)[O-])c1	-2.9	5.4	-7	-1	2.1	-1.5	2%	2
COC(C[C@H](O)C[C@H](O)[C@@H](C)OCc1ccccc1)OC	-0.8	-1.3	-8	-6	3.3	-0.7	nt	-20
COc1ccc(S(=O)(=O)Nc2ccccc2C(=O)NCc2cccnc2)cc1C	0.0	4.1	10	-4	6.4	-1.0	nt	5
CC(C)c1ccc(N=c2c([N+](=O)[O-])nn(-c3ccc4c(c3)OCCO4)n2O)cc1	0.1	-48	-12	0	-0.3	2.2	4%	53
CCN(CC)S(=O)(=O)c1cc(NC(=O)c2cc(-c3ccccn3)nc3ccccc23)ccc1C	-0.4	2.5	-9	12	-0.7	-2.7	-11%	53
Cc1cc(Nc2ccc(C(=O)N3CCCCC3)cc2)c2cccc(C)c2n1	0.2	-1.4	3	7	6.0	2.6	-12%	-2
CCN1CCN(S(=O)(=O)c2ccc(Oc3ccccc3OC)cc2)CC1	-0.3	1.9	-19	1	0.4	nt	-4%	-5
CCNS(=O)(=O)c1ccc(NC(=O)Nc2cccc(OC)c2)cc1	-3.3	nt	2	-1	-2.3	0.1	21%	-10
COc1cccc([C@@H]2CC=C(C(=O)O)[C@H](c3ccccc3)N2S(=O)(=O)c2ccc(C)cc2)c1	0.2	4.2	nt	-5	2.3	nt	nt	nt
COc1cccc(NC(=O)NCc2ccccc2Cl)c1	-1.9	3.5	0	-1	-0.4	3.6	nt	-1
O=C(Nc1ccc(O)cc1)c1cc2n(n1)C(C(F)(F)F)CC(c1ccco1)N2 (stereo not drawn)	-0.3	nt	8	9	-0.3	-1.5	?	1
Cc1ccccc1CNc1ccc(C(CC(N)=O)NC(=O)c2ccc(Br)cc2)cc1[N+](=O)[O-] (stereo not drawn)	0.0	0.2	-8	91*	-4.0	5.3	5%	24

Assay outcomes from PubChem BioAssay.
